Compound activity: PubChem, National Center for Advancing Translational Sciences (NCATS)
Lassa entry inh: inhibitors of Lassa virus binding or cell entry; Lassa virus pseudotype entry inhibition, cell reporter; control for the full effect not named in the record; Potency, µM (titrated, usually from 37.9 µM), inactives show at the top dose activity change, negative = inhibition, most hits filed as inhibitors; 300,000 tested, 1.2% active; active means well fitted inhibition curve with a large enough effect; inconclusive means small, poorly fitted or top-dose-only effect, or effect the other way; inactive means flat fitted curve, though single readings scatter; tested in HEK293 cells; note: % is set by controls: 0 for no effect and ±100 for the full control effect; nearly all actives have a fitted effect of over 50% in size; luciferase read-out
Cruzain inh Det: inhibitors of Trypanosoma cruzi cruzain with detergent; Potency, µM, inactives show max response, negative = inhibition, actives largely listed as inhibitors; AID 1478; 200,000 tested, 0.43% active; purified cruzain, Z-FR-AMC fluorescence, 0.01% Triton; P25779;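 note: plate controls were neutral wells for no effect and buffer without enzyme for full effect; nearly all actives have a fitted effect of over 40% in size; top concentration of the series not given in the record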
Target sequence (P25779 123-467 limits assumed): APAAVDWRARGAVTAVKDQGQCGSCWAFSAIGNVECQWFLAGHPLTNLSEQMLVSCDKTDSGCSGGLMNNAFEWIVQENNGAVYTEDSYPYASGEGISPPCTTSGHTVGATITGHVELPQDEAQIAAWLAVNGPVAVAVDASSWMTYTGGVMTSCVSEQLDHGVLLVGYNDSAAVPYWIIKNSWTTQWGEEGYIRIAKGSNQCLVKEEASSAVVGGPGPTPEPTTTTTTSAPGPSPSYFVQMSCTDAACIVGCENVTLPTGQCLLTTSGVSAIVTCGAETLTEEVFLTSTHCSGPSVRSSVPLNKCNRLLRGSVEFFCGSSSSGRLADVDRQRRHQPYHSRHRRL
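Cruzain (1.5 nM) preincubated 15 min at RT with compound in 100 mM sodium acetate pH 5.5, 5 mM DTT, 0.01% Triton X-100. Reaction started with 2 uM Z-FR-AMC; AMC fluorescence (ex 360/em 450 nm) change over 60 s gave rate.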
NS1 inh: blocks influenza NS1 protein function. Potency, µM (titrated, usually from 46.1 µM), for the others: at the top dose activity, positive = more growth. S. cerevisiae slowed by influenza A NS1, growth recovery by OD600. AID 2326. 270,000 tested, 0.4% active; active means well fitted rising curve with a large enough effect; inconclusive means small, poorly fitted or top-dose-only effect; inactive means no such curve, though single readings can be large or run the other way; note: nearly all actives have a fitted effect of over 50% in size
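Compounds were scored for reversing the slow growth caused by influenza A NS1 in S. cerevisiae, measured by optical density at 600 nm. Assay medium contained 2% galactose at pH 6.0; NS1-free yeast of the same strain were the positive control.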
2A StopGo: lowers the luciferase signal of an FMDV 2A StopGo reporter; human cells with a luciferase reporter of 2A StopGo recoding; control for the full effect not named in the record; Potency, µM (top dose mostly 57.9 µM), without a hit: at the top dose signal change, negative = less light; 410,000 tested, 1.2% active; AID 1159524; active = well fitted falling curve with a large enough effect; inconclusive = small, poorly fitted or top-dose-only effect; inactive = no such curve, though single readings can be large or run the other way; tested in HEK293T cells; note: % is set by controls: 0 for no effect and ±100 for the full control effect; nearly all actives have a fitted effect of over 45% in size; luciferase light after 4 h
SARS PLpro yeast: blocks SARS-CoV papain-like protease in a yeast assay. S. cerevisiae expressing SARS-CoV PLpro, growth rescue; control for the full effect not named in the record. Potency, µM (highest dose often 32.9 µM), without a hit: at the highest dose activity, positive = growth rescue. 330,000 tested, 0.19% active. AID 485353; active means well fitted rising curve with a large enough effect; inconclusive means small, poorly fitted or top-dose-only effect; inactive means no such curve, though single readings can be large or run the other way; note: 0% is about no effect; nearly all actives have a fitted effect of over 55% in size; growth read by luminescence after 48 h
Cruzain inh noDet: blocks cruzain activity in detergent-free assay; P25779; purified cruzain, Z-FR-AMC fluorescence, no detergent; Potency, µM, without a hit: max response, negative = inhibition, hits mostly inhibitors; 200,000 tested, 2.3% active; AID 1476;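 note: plate controls were enzyme without inhibitor for no effect and buffer without enzyme for full effect; nearly all actives have a fitted effect of over 40% in size; top concentration of the series not given in the record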
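Purified cruzain at 1.5 nM, pre-incubated 15 min with compound at room temperature in 100 mM sodium acetate pH 5.5, 5 mM DTT, 0.00005% Triton X-100. Reaction started with 2 uM Z-FR-AMC; AMC fluorescence increase over 60 s gives rate.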
Marburg entry inh: Marburg virus entry inhibition. Marburg virus pseudotyped entry inhibition, cell reporter; control for the full effect not named in the record; about a third of the inactives were read at about 46 µM. Potency, µM (series often up to 37.8 µM), inactives show at the top dose activity change, negative = inhibition, hits mostly inhibitors. 300,000 tested, 1.8% active; active = well fitted inhibition curve with a large enough effect; inconclusive = small, poorly fitted or top-dose-only effect, or effect the other way; inactive = flat fitted curve, though single readings scatter; tested in HEK293 cells; about a fifth of its hits are not listed in these tables; note: % is set by controls: 0 for no effect and ±100 for the full control effect; luciferase read-out
RE007 growth inh: less growth of the S. pombe RE007 Vpr strain; S. pombe RE007 Vpr strain, BacTiter-Glo ATP luminescence, 24 h; control for the full effect not named in the record; 360,000 tested, 0.21% active; Potency, µM (series often up to 92.2 µM), for inactives: top-dose activity change, negative = less growth; active = well fitted falling curve with a large enough effect; inconclusive = small, poorly fitted or top-dose-only effect; inactive = no such curve, though single readings can be large or run the other way;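 note: % is set by controls: 0 for no effect and ±100 for the full control effect; nearly all actives have a fitted effect of over 50% in size; the assay follows cell death caused by Vpr and the record does not say whether a fall means rescue or toxicity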
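Fission yeast strain RE007, carrying one chromosomally integrated HIV-1 vpr copy, was seeded at OD 0.01 in PMG+AL medium with 23 nL pinned compound. After 24 h at 30 °C and 99% humidity, viability was read by BacTiter-Glo luminescence.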
Starred values were filed as active, the others as inactive; ? = inconclusive; . = no result given; & = joins results of further samples; [ ] = another dose, or the depositor's remark. Unless noted, calls come from the whole dose curve; as a rule, active = well fitted curve in the direction sought with a large enough effect; inconclusive = small, poorly fitted or top-dose-only effect, or another doubt; inactive = no such curve, though single readings can be large; an effect the other way counts as inactive or inconclusive. Potency is the fitted concentration of half-maximal effect.

SMILES | Lassa entry inh | Cruzain inh Det | NS1 inh | 2A StopGo | SARS PLpro yeast | Cruzain inh noDet | Marburg entry inh | RE007 growth inh
C=CCOc1ccc(Cl)cc1C(=O)O | 19% | 4.9% | -5% | -8% | 1% | 1% | ? | 1%
Cn1c(CNc2cccc(C(F)(F)F)c2)n[nH]c1=S | 4% | . | 6% | 0% | 1% | . | 1% | 0%
O=[N+]([O-])c1ccc(Cl)cc1N1CCCCC1 | . | . | 2% | -5% | 0% | . | . | 40%
CCOc1ccc2nc(SCC(=O)Nc3ccc(F)cc3)nc(-c3ccccc3)c2c1 | 13%[46.1 µM] | 5.0% | . | -17% | . | -1% | 3%[46.1 µM] | .
COc1ccc(N(CC(=O)Nc2cccc(SC)c2)S(C)(=O)=O)cc1Cl | ? | -7.3% | ? | -18% | 7% | -7% | 0% | 25%
CCOC(=O)c1cccc(NC(=O)CC2C(=O)N(c3ccc(F)cc3)C(=O)N2Cc2cccc(OC)c2)c1 (stereo not drawn) | ? | -5.7% | . | -24% | . | 0% | . | .
C=CCn1c(CC(=O)OC)csc1=Nc1ccc(C(C)=O)cc1 | -27% | -7.3% | -48% | 14% | -5% | 7% | 4% | 9%
CC1CCCCN1CCNC(=O)c1ccc2c(=O)n(Cc3ccc(Cl)cc3)c(=S)[nH]c2c1 (stereo not drawn) | ? | . | 27% | -11% | 1% | . | ? | -2%
COc1cccc(/C=N/Nc2nnc(C)n2N)c1OCc1ccccc1Cl | -8% | 1.7% | -22% | -19% | -46% | 13% | 3% | -16%
CSc1nc(C)c2c(n1)N(c1cccc(C)c1)CC2 | -2% | -10% | -23% | -17% | -14% | ? | 1% | -29%
COc1ccc(-n2c(C)cc(-c3cn4cccc(C)c4n3)c2C)cc1 | ? | . | . | 0% | -1% | . | ? | -12%
C#CCSc1nccc(-c2nn(-c3ccc(C)cc3)ccc2=O)n1 | ? | -6.0% | -6% | -10% | 2% | -12% | ? | -5%
Cc1cc(=O)oc(C)c1C(=O)NCCC(C)C | -1% | -8.7% | ? | 4% | 6% | 10% | ? | 1%
CN(CC(=O)Nc1c(Cl)cccc1Cl)C(=O)c1cc2ccccc2cc1O | 2% | . | . | 9% | 2% | . | 3%[46.1 µM] | 6%
O=C(Nc1ccccc1C(F)(F)F)c1ccsc1 | . | . | 3% | 4% | -2% | . | . | 2%
CCC(C)(C)n1nnnc1C(c1ccncc1)N1CCC(Cc2ccccc2)CC1 (stereo not drawn) | -15% | -8.6% | -3% | -11% | -26% | ? | ? | 1%
Cc1cc(C)c(C)c(S(=O)(=O)Nc2ccc(C(=O)N3CCCC3)cc2)c1C | -8% | . | -1% | 25% | 1% | . | -12% | -4%
Cn1c2ccccc2c2c(C(=O)N3CCC4(CC3)OCCO4)cn(C3CCCCC3)c(=O)c21 | 11% | -8.6% | 5% | 25% | -2% | 2% | 3%&11% | 13%
O=C(CCc1ccccc1)NC1CCCc2ccccc21 (stereo not drawn) | -13%[46.1 µM] | . | -23% | 16% | 2% | . | -1%[46.1 µM] | -8%
COc1ccccc1OCC(=O)NCCNC(=O)COc1ccccc1OC | 1% | -3.1% | -8% | 10% | 0% | 21% | -6% | 13%
COCCn1nnnc1C(c1ccc(O)c(OC)c1)N1CCc2ccccc2C1 (stereo not drawn) | 16% | 1.8% | 15% | -21% | 2% | 4% | ? | 19%
OCCC1CN(Cc2cccn2-c2ncccn2)CCN1CCc1ccccc1 (stereo not drawn) | -13% | . | -1% | 14% | 1% | . | 19%[46.1 µM] | -3%
CCOc1ccc(S(=O)(=O)NC(C)C(=O)NC2CCCC2)cc1 (stereo not drawn) | 4% | . | 12% | 1% | -2% | . | ? | 3%
CCOC(=O)C1=C(COC(=O)c2cc(OC)c(OC)c(OC)c2)NC(=O)NC1C (stereo not drawn) | -20% | . | . | -27% | 1% | . | 4% | 27%
COC(=O)COc1ccc(C2Nc3c(Cl)ccc(C(=O)O)c3C3C=CCC32)cc1 (stereo not drawn) | -4% | . | . | 8% | 0% | . | 8%[46.1 µM] | 5%
Cc1ccc(-c2c[n+](=O)c3c(n2[O-])CCC3)cc1 | 2% | . | -3% | 12% | 0% | . | 5%&5% | -5%
Cc1cc(=O)[nH]c2c1c(-c1ccccc1)nn2C | -4% | . | -3% | -6% | 0% | . | 1% | -22%
O=C(NC(=S)NCCN1CCOCC1)c1ccccc1Br | ? | -2.6% | 12% | -15% | 25% | -2% | ? | -1%
COc1cc(/C=N/N2CCN(c3ccc(Cl)cc3)CC2)cc(OC)c1OC(C)=O | . | . | 16% | ? | 2% | . | . | -7%
O=C(CCC(=O)NNC(=O)c1ccc([N+](=O)[O-])cc1)NCc1ccccc1 | -22% | . | 5% | 0% | 0% | . | -10%[46.1 µM] | -1%
S=C(NCCc1ccncc1)Nc1ccccc1 | -16% | . | 2% | 25% | 1% | . | 27%[46.1 µM] | -2%
CCCc1[nH]nc2c1C(c1ccc(Br)s1)C(C#N)=C(N)O2 (stereo not drawn) | ? | -5.0% | 2.5µM* | 25µM* | -29% | -15% | ? | -26%
O=C(CSc1nnnn1-c1ccccc1)NCc1ccco1 | 7% | -0.7% | 12% | 8% | -9% | -5% | 14% | 0%
Cc1ccc2cccc(NC(=S)NC(=O)c3ccccc3)c2n1 | -4% | -7.6% | 14% | -19% | 26% | -17% | 9% | -9%
CO/N=C/C(=N\Nc1ccc(C)cc1)C(=O)c1ccc(OC)cc1 | ? | 1.7% | -1% | ? | 5% | -8% | -20% | 9%
c1ccc(-c2cccs2)nc1 | 6% | . | -2% | -7% | 0% | . | ? | 3%
O=S(=O)(NCC1CCN(S(=O)(=O)c2ccccc2)CC1)c1ccccc1 | 11% | -11% | -10% | 22% | 20% | -5% | 0% | 24%
O=C(NCCc1ccccc1)c1c(F)cccc1F | ? | . | 3% | 21% | -1% | . | ? | 2%
CCCN(CCC)C(=O)C1CCCN(c2ncnc3c2nc2n3CCCCC2)C1 (stereo not drawn) | ? | 0.2% | . | -19% | . | 9% | . | .
CC1CCCN(C(=O)CSc2nnc(-c3ccc(O)cc3)o2)C1 (stereo not drawn) | -26%[46.1 µM] | . | -6% | 22% | 1% | . | 3%[46.1 µM] | -16%
CCN(CC)S(=O)(=O)c1cccc(-c2nnc(SCc3nc4ccccc4s3)o2)c1 | ? | -0.5% | 3% | 0% | 8% | ? | ? | 0%
CNC(=O)c1ccsc1NC(=O)CCS(=O)(=O)c1ccc(F)cc1 | 7%[46.1 µM] | . | . | -29% | 0% | . | ? | 9%
Cc1cc(/C=N/Nc2ccc([N+](=O)[O-])cn2)c(C)n1-c1cccc(C(=O)O)c1 | . | . | 24% | -20% | 1% | . | . | 1%
COc1cccc(CN(C)S(=O)(=O)c2cccs2)c1 | 1%[46.1 µM] | . | -7% | 11% | 5% | . | ? | 18%
COc1ccc(C)cc1NC(=O)Cn1c(=O)oc2cc(S(=O)(=O)N3CCCCCC3)ccc21 | -17%[46.1 µM] | -3.2% | . | -20% | . | -3% | . | .

An excerpt from above in order of SMILES length, smallest number first.
SMILES | Lassa entry inh | Cruzain inh Det | NS1 inh | 2A StopGo | SARS PLpro yeast | Cruzain inh noDet | Marburg entry inh | RE007 growth inh
S=C(NCCc1ccncc1)Nc1ccccc1 | -16% | . | 2% | 25% | 1% | . | 27%[46.1 µM] | -2%
CC1CCCN(C(=O)CSc2nnc(-c3ccc(O)cc3)o2)C1 (stereo not drawn) | -26%[46.1 µM] | . | -6% | 22% | 1% | . | 3%[46.1 µM] | -16%
CCCc1[nH]nc2c1C(c1ccc(Br)s1)C(C#N)=C(N)O2 (stereo not drawn) | ? | -5.0% | 2.5µM* | 25µM* | -29% | -15% | ? | -26%
CNC(=O)c1ccsc1NC(=O)CCS(=O)(=O)c1ccc(F)cc1 | 7%[46.1 µM] | . | . | -29% | 0% | . | ? | 9%

(list continues)
SMILES | Lassa entry inh | Cruzain inh Det | NS1 inh | 2A StopGo | SARS PLpro yeast | Cruzain inh noDet | Marburg entry inh | RE007 growth inh
CCOc1ccc(N(CC(=O)Nc2cc(C)ccc2C)S(=O)(=O)c2c(C)[nH]c(=O)[nH]c2=O)cc1 | 7%[46.1 µM] | 1.0% | -3% | -10%&-9% | 3% | 5% | 2%&2%[46.1 µM] | 14%
COC(=O)C(C)Oc1ccc2c3c(c(=O)oc2c1)CCCCC3 (stereo not drawn) | 9% | ? | -18% | 10% | -7% | -10% | ? | 5%
COc1cc(C(=O)NC(=S)Nc2ccccc2N2CCCC2)cc(OC)c1OC | . | . | 21% | -22% | -7% | . | . | -8%
O=C(N/N=C/c1c(O)n(-c2ccc(Cl)cn2)c(=O)c2ccccc12)C1CC1 | -22% | -8.5% | 3% | 2% | -5% | 0% | ? | 7%
Cc1ccc(C)c(NC(=O)C2Cc3ccccc3CN2C(=O)OCc2ccccc2)c1 (stereo not drawn) | ? | 2.1% | -5% | 8% | -1% | -4% | 2.5µM* | -1%

Some values from the results shown:
`CCCN(CCC)C(=O)C1CCCN(c2ncnc3c2nc2n3CCCCC2)C1` (stereo not drawn) in 2A StopGo is listed with -19%
`CCOc1ccc(N(CC(=O)Nc2cc(C)ccc2C)S(=O)(=O)c2c(C)[nH]c(=O)[nH]c2=O)cc1` in NS1 inh is listed with -3%
`O=S(=O)(NCC1CCN(S(=O)(=O)c2ccccc2)CC1)c1ccccc1` in 2A StopGo is listed with 22%

Two consecutive records already listed, quoted:
SMILES | Lassa entry inh | Cruzain inh Det | NS1 inh | 2A StopGo | SARS PLpro yeast | Cruzain inh noDet | Marburg entry inh | RE007 growth inh
CCOc1ccc(N(CC(=O)Nc2cc(C)ccc2C)S(=O)(=O)c2c(C)[nH]c(=O)[nH]c2=O)cc1 | 7%[46.1 µM] | 1.0% | -3% | -10%&-9% | 3% | 5% | 2%&2%[46.1 µM] | 14%
COC(=O)C(C)Oc1ccc2c3c(c(=O)oc2c1)CCCCC3 (stereo not drawn) | 9% | ? | -18% | 10% | -7% | -10% | ? | 5%
